Screens from PubChem BioAssay.
Vaccinia mCherry = qHTS for Stage-Specific Inhibitors of Vaccinia Orthopoxvirus: mCherry Reporter Primary qHTS; Vaccinia virus mCherry reporter infection, fluorescence; about a quarter of the inactives have no number; Potency, µM (titrated, usually from 36.5 µM), for the others: at the highest dose activity change, negative = inhibition, usual class: inhibitors; 310,000 compounds, 0.63% hits; AID 720579, 2013; active = well fitted inhibition curve with a large enough effect; inconclusive = small, poorly fitted or top-dose-only effect; inactive = no such curve, though single readings can be large or run the other way; tested in A549 cells; further: nearly all actives have a fitted effect of over 35% in size; inactives centre near -10
VACV Venus inh = qHTS for Stage-Specific Inhibitors of Vaccinia Orthopoxvirus: Venus Reporter Primary qHTS; Vaccinia virus Venus reporter expression, fluorescence; 330,000 compounds, 0.46% hits; AID 720580, 2013; Potency, µM (highest dose often 36.5 µM), without a hit: at the top dose activity change, negative = inhibition, hits mostly inhibitors; active means well fitted inhibition curve with a large enough effect; inconclusive means small, poorly fitted or top-dose-only effect; inactive means no such curve, though single readings can be large or run the other way; tested in A549 cells; further: nearly all actives have a fitted effect of over 30% in size; inactives centre near -10
The depositor's hits bear a star; i = inactive; ? = inconclusive; . = not tested or not shown; [ ] = dose if it differs, or a comment. On the % scale 0 is the no-effect control and ±100 the full control effect; potency means the concentration at half of the fitted maximal effect.

SMILES	Vaccinia mCherry	VACV Venus inh
CC(C)C(NC(=O)C1CCC(C(C)(C)C)CC1)C(=O)NCCCN1CCCCC1 (centres undefined)	-21%	6%
Cc1cc(=O)n(CC(C)C)c(O)c1C#N	.	-10%
O=C(Cn1cc2c(n1)CCCC2)Nc1cc(-c2cccc(Cl)c2)no1	5%	10%
CCc1ncc(C(O)c2ccc(Cl)cc2)n1Cc1ccccc1 (centres undefined)	-5%	?
COCCCNC(=O)c1c(N)n(-c2cccc(S(N)(=O)=O)c2)c2nc3ccccc3nc12	.	-11%
CCCCCCC[n+]1c(/C=C/c2ccc(N(C)C)cc2)sc2ccccc21	?	29%
O=C(NN1C(=O)C2C3C=CC(C3)C2C1=O)c1cccc(Cl)c1 (centres undefined)	-17%	-2%
Cc1csc(NC(=O)c2ccc(Cl)cc2[N+](=O)[O-])n1	?	?
CCN1CCN(c2ccc(S(=O)(=O)N3CCCCC3)cc2NC(=O)c2ccc(OC(F)F)cc2)CC1	-10%	-24%
CSc1ccc(CN2CCC(N3CCC(C(=O)NC4CC4)CC3)CC2)cc1	?	-24%
CCCCCCCCN1[C@@H](CC(=O)O)c2ccc(/C=C/C(=O)O)cc2S1(=O)=O	i	-10%
CN(C)S(=O)(=O)CC12CCC(CC1=O)C2(C)C (centres undefined)	.	?
COC(=O)c1ccc(NC(=O)CSc2nnc(C)n2CC2CCCO2)cc1 (centres undefined)	-22%	-15%
Cn1c(SCc2nc3ccccc3c(=O)[nH]2)nc2ccccc21	-7%	0%
CCC1CCc2c(sc3ncnc(N4CCOCC4)c23)C1 (centres undefined)	.	-3%
COc1ccc2[nH]c3c(c2c1)CCN1C(=O)C(CC(=O)NCCCn2ccnc2)C[C@H](C(=O)N2CCCCC2)[C@@]31CCc1ccccc1 (some centres undefined)	-6%	-26%
C/C(=N/O)c1cc(C(C)(C)C)c(O)c(C(C)(C)C)c1	-19%	-21%
O=C(CSC1=NC(=O)C(c2ccccc2)C(=O)N1)Nc1cccc(Cl)c1 (centres undefined)	.	-12%
CN1C(=O)S/C(=C/c2cccn2-c2cccc(C(=O)O)c2)C1=O	-7%	-11%
CC1(C)OC2CC3C4CCC5=CC(=O)CCC5(C)C4(F)C(O)CC3(C)[C@]2(C(=O)CCl)O1 (some centres undefined)	-11%	-6%
Cn1c(Oc2ccc(Cl)cc2)nc2c1c(=O)n(Cc1ccc(F)cc1)c(=O)n2C	9%	15%
O=C(COc1ncnc2ccccc12)N1CCN(c2ccccc2)CC1	7%	1%
CC(NC(=O)CN(c1ccc(Cl)cc1Cl)S(=O)(=O)c1ccccc1)c1ccccc1 (centres undefined)	?	-26%
CCCn1nc2cc(C(=O)NCc3ccccc3OC)ccc2c1OCC	i	-26%
OCCC1CN(Cc2cccn2-c2cccnc2)CCN1Cc1ccccc1 (centres undefined)	-8%	-7%
CCc1ccc(NC(=O)c2cc(-c3cccs3)on2)cc1	-8%	-7%
O=C(COC(=O)COc1ccc(Cl)cc1Cl)NC1CCCC1	-15%	-16%
Cc1cc(C)cc(C(=O)NCC(=O)OCC(=O)N2CCCCC2)c1	-14%	-9%
CCCCn1nnnc1C(c1cc2ccccc2o1)N1CCN(c2ncccc2C#N)CC1 (centres undefined)	13%	2%
COC(=O)c1ccc2c(=O)[nH]c(COC(=O)c3[nH]c(C)c(C(C)=O)c3C)nc2c1	3%	1%
CN(C)c1ccc(/C=C2/C(=N\O)C3CCN2CC3)cc1	-26%	-20%
O=[N+]([O-])c1ccc(N/N=C/c2ccccc2O)cc1	?	?
O=[N+]([O-])c1ccc(Nc2nc(N/N=C/c3cccc(F)c3)nc(N3CCCC3)n2)cc1	-27%	-25%
COCCCNC(=S)N1CCCN(c2nc3cc(C)c(C)cc3cc2C#N)CC1	-19%	-21%
CC1=NN(C(=O)c2cc(C)nn2C)C(O)(C(F)(F)F)C1 (centres undefined)	-26%	-6%
Cc1nnc(-c2cnn(C)c2N)n1Cc1ccccc1	-11%	-3%
Cc1cc(C(=O)NCc2cccnc2)cs1	-3%	-5%
CCSc1nc2c(c(=O)[nH]1)C(c1ccncc1)C(C(=O)OC(C)C)=C(C)N2 (centres undefined)	-1%	-21%
COc1ccccc1N(CC(=O)Nc1cccnc1)S(C)(=O)=O	i	-7%
NNC(=O)c1cccn(Cc2cccc(C(F)(F)F)c2)c1=O	-3%	?
CCCn1c(SCC(=O)Nc2cccc(NC(C)=O)c2)nnc1C(C)C	-7%	-4%
CCc1nnc(NC(=O)C2Cc3ccccc3C(=O)O2)s1 (centres undefined)	-27%	-12%
COc1cc(OC)c(-c2nn3c(-c4ccco4)nnc3s2)cc1OC	11µM*	?
N#CC1=C(N)OC2=C(C(=O)CCC2)C1c1ccncc1 (centres undefined)	.	-1%
C[C@@H]1CN([C@@H](C)CO)C(=O)Cc2cc(NS(=O)(=O)c3ccccc3)ccc2O[C@H]1CN(C)S(C)(=O)=O	?	-9%
Cc1ccc(-n2ncc(C(=O)NCCCN3CCN(C)CC3)c2C2CCN(C(=O)OC(C)(C)C)CC2)c(C)c1	1%	-6%
COCCCNCCCOc1ccc(Cl)cc1C(C)(C)C	-23%	-9%
CC(C)C[C@H]1CN(CCCC[C@H]2CNC(=O)C(=O)N2CCc2ccccc2)C(=O)C(=O)N1CC1CCCCC1	-4%	-6%
Cn1c(=O)c2cc(NC(=O)NCc3ccc(Cl)cc3Cl)ccc2n1Cc1ccccc1	0%	-20%
CCNC(=O)C1(C)CCN(C(=O)c2c(-c3ccccc3)noc2C)C1 (centres undefined)	5%	-1%

(listing goes on)
SMILES	Vaccinia mCherry	VACV Venus inh
Cc1cccc(NC(=S)NCC2CCCO2)c1 (centres undefined)	-14%	-3%
O=C(c1ccc2c(c1)CCN2S(=O)(=O)c1ccccc1)N1CCN(c2ccccc2)CC1	-29%	-23%
Cn1c(=O)n(Cc2ccccc2)c2ccccc21	-21%	-11%
COc1cc(NC(=O)N(Cc2ccco2)C2CCN(C(C)=O)CC2)cc(OC)c1OC	-14%	-5%
NS(=O)(=O)c1ccc(N2C(=O)CCCC2=O)cc1	?	-12%
C[C@H](CO)N1C[C@H](C)[C@@H](CN(C)C(=O)Nc2ccc3c(c2)OCO3)Oc2ccc(NS(=O)(=O)c3ccccc3)cc2C1=O	i	-17%
COc1cc(OC)c(NC2c3ccccc3C(=O)N2c2cc(C)ccn2)cc1Cl (centres undefined)	-19%	-5%
COc1cccc(NC(=S)NC(=O)c2cccnc2)c1	-1%	-10%
COc1cc(OC)cc(C(=O)N2CCN(S(=O)(=O)c3ccc4c(c3)OCCO4)CC2)c1	-1%	-26%
COC(=O)c1c(-c2ccc(OC)cc2)sc2ccc(-c3ccc4c(c3)OCO4)cc12	i	-10%
CC(=O)N1CCc2nc3ccccc3cc21	i	-8%
CC(C)c1ccc(NC(=O)CN2C(=O)c3cccc4cccc2c34)cc1	i	-12%
Cc1nc(-n2nc(C)c(Cc3ccc4c(c3)OCO4)c2C)sc1C(=O)Nc1ccc(Cl)cc1	-18%	-15%
O=C(c1ccco1)N(Cc1ccc2c(c1)OCO2)Cc1cc2cc3c(cc2[nH]c1=O)OCO3	-13%	-12%
CCCCN(C)Cc1c(C(=O)N2CCc3ccccc3C2)nc2ccc(Cl)cn12	-8%	-4%
CN(Cc1ccccc1)C(=S)Nc1ccc2nc3n(c(=O)c2c1)CCCCC3	i	-18%
Cc1cc(/C=N/n2cnnc2)c(C)n1-c1ccc(OCc2ccc(F)cc2)cc1	-29%	-25%
Cc1ccc(CNC(=S)Nc2cc(C)ccc2OC(F)F)cc1	-7%	-9%
COCCCNC(=S)N(Cc1cccnc1)Cc1ccc(OC)c(OC)c1	i	-17%
CCN1CCN(C(=O)Cn2ncc3c4ccccc4n(Cc4ccccc4F)c3c2=O)CC1	-15%	-8%
CC(CCc1ccccc1)NC(=O)CSc1n[nH]c(-c2ccccc2Cl)n1 (centres undefined)	-15%	-15%
CN(C)C(=O)c1c(C(F)(F)F)nn(C)c1Cl	i	-7%
COc1ccccc1CCNC(=O)C1CCC(=O)N(C2CCCCCC2)C1 (centres undefined)	i	-11%
CC(C)[C@H](NC(N)=O)C(=O)Nc1cccc([N+](=O)[O-])c1	-2%	-6%
CCOC(=O)c1ccccc1OC(=O)NNc1ccccc1	?	-1%

By substructure, those above with a tert-butyl group.
SMILES	Vaccinia mCherry	VACV Venus inh
CC(C)C(NC(=O)C1CCC(C(C)(C)C)CC1)C(=O)NCCCN1CCCCC1 (centres undefined)	-21%	6%
C/C(=N/O)c1cc(C(C)(C)C)c(O)c(C(C)(C)C)c1	-19%	-21%
Cc1ccc(-n2ncc(C(=O)NCCCN3CCN(C)CC3)c2C2CCN(C(=O)OC(C)(C)C)CC2)c(C)c1	1%	-6%
COCCCNCCCOc1ccc(Cl)cc1C(C)(C)C	-23%	-9%

Back to the main list with the 3 entries that preceded the break.
SMILES	Vaccinia mCherry	VACV Venus inh
COc1ccccc1CCNC(=O)C1CCC(=O)N(C2CCCCCC2)C1 (centres undefined)	i	-11%
CC(C)[C@H](NC(N)=O)C(=O)Nc1cccc([N+](=O)[O-])c1	-2%	-6%
CCOC(=O)c1ccccc1OC(=O)NNc1ccccc1	?	-1%
CC1Cc2cc(S(=O)(=O)CCC(=O)Nc3cccc(F)c3)ccc2N1C(=O)C1CC1 (centres undefined)	-4%	-10%
CCN(CC)CCNC(=O)c1ccc(Cl)c(S(=O)(=O)N2CCCCCC2)c1	?	-27%
COc1ccc(-c2c[n+]3c4n2CCCCC4=C(c2ccc(Br)cc2)C3)cc1	i	-6%
COc1cc(C(=O)OCC(=O)NCc2ccc(F)cc2)ccc1OCC(C)C	i	-15%
C/C=C\C=C/C(=O)Nc1cccc(C2=NOC3(C2)C[C@@H](C(N)=O)N(C(=O)COc2ccc(Cl)cc2)C3)c1 (some centres undefined)	i	-19%
CCOc1cccc(CN2CCCC(N3CCN(c4cccc(Cl)c4)CC3)C2)c1O (centres undefined)	-17%	-9%
CC(C)CN(C(=O)COC(=O)c1nc(Cl)ccc1Cl)c1c(N)n(Cc2ccccc2)c(=O)[nH]c1=O	i	-10%
COc1cnn(-c2ccc(C)cc2)c(=O)c1Br	-20%	-1%
CCOc1cc(C2C(C(=O)Nc3ccc(OC)cc3)=C(C)Nc3nc(SC)nn32)ccc1O (centres undefined)	-7%	-4%
CSc1nnc(CNC(=O)C23CC4CC(CC(C4)C2)C3)n1Cc1ccccc1	-18%	-7%
CC1(C)CC(O)C(C(O)c2cccc([N+](=O)[O-])c2)C(C)(C)N1 (centres undefined)	i	-10%
COc1cc2nc(CN3CCC(Cc4ccccc4)CC3)[nH]c(=O)c2cc1OC	i	-8%
CCCCOc1ccc(C(NC(=O)OCC)NC(=O)OCC)cc1	-7%	-5%
COc1cc(NC(=O)c2noc3c2CSc2ccccc2-3)cc(OC)c1OC	-11%	-30%
COc1cc(OC)c(NC(=O)CC(C)S(=O)(=O)c2ccc3c(c2)NC(=O)CO3)cc1Cl (centres undefined)	-14%	-10%
O=C1CN(CC(=O)NC(=O)NCc2ccccc2)CCN1	i	-14%
COc1cc(OC)c(NC(=O)Nc2sc3nc4n(c(=O)c3c2C)CCC(C)CC4)cc1Cl (centres undefined)	-3%	-17%
COc1ccc(Cc2nc3ccc(S(N)(=O)=O)cc3[nH]2)cc1OC	.	-5%
COc1ccccc1NC(=O)COC(=O)c1ccccc1SCC(=O)N1CCCC1	i	-5%
COc1ccc(C(=O)NC2=NCCS2)cc1	i	-8%
O=c1cc(Cc2ccccc2)[nH]c(=S)[nH]1	i	-1%
O=[N+]([O-])c1cnc(Sc2ccncn2)c([N+](=O)[O-])c1	?	?
N#CC1=C(N)Oc2n[nH]c(-c3cccs3)c2C1c1ccsc1 (centres undefined)	.	-7%
Cc1ccc(NS(=O)(=O)c2cc(C(=O)Nc3cccc(N(C)S(C)(=O)=O)c3)ccc2C)c(C)c1	-20%	?
CC(=O)n1nc(-c2cccnc2)nc1NCc1cccs1	-15%	-16%
Cn1c(=O)[nH]c(=O)c2c1nc(NCc1ccccc1)n2CCCc1ccccc1	.	-18%
CCC(=O)NC1(C(F)(F)F)C(=O)Nc2c1c(=O)[nH]c(=O)n2Cc1ccco1 (centres undefined)	.	-6%
CN(C)c1ccc(-c2csc(C(O)c3cccc(Cl)c3)n2)cc1 (centres undefined)	i	-7%
O=C(c1cc(Cl)nc2ccccc12)N1CCN(S(=O)(=O)c2cccc(C(F)(F)F)c2)CC1	-9%	-7%
COc1ccc(NC(=O)c2sc3nc(-c4cccnc4)ccc3c2N)cc1	?	-9%[7.34 µM]
COc1ccc(OC)c(-c2nc(CN3CCCCC3c3cccnc3)c(C)o2)c1 (centres undefined)	-8%	-9%
CC(=O)Nc1cccc(NC(=O)c2c(-c3ccccc3)c(-c3ccccc3)nn(C)c2=O)c1	6%	-4%
